Screens as filed in PubChem.
Beta apoptosis = blocks beta cell apoptosis. AID 435005. INS-1E cytokine-induced death, ATP luminescence, 48 h; percent of positive-control rescue, neutral wells zero. protection from apoptosis, % (concentration not given with the values). 300,000 compounds, 0.8% hits;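 active = all replicates at 75% or more, or half of them and the mean; inconclusive = half reach 75% but not the mean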;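 note: 0% = cytokine-treated negative control wells and 100% = positive control rescue; higher means more ATP so stronger rescue from cytokine killing; wells of about 40 µL received 100 nL stock; the first replicate is given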
Vif TR-FRET = inhibitors of Vif binding to APOBEC3G peptide, primary screen, biochemical, TR-FRET, GST-Vif 1-94, biotin-A3G peptide, dose response retest (AID 1117319). TR-FRET GST-Vif / biotin-A3G peptide binding; higher % means a stronger effect; test concentration not given here; strong numbers were not always called active. inhibition, %, or IC50 in µM where a hit was titrated. 260,000 compounds, 0.57% hits;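 active = above the screen mean plus three standard deviations and confirmed in dose response; inconclusive = results disagree or hit not tested in dose response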;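 note: Vif residues 1-94 fused to GST binding biotinylated APOBEC3G peptide 110-148; 0% = full assay without inhibitor and 100% = GST in place of GST-Vif; retest series ran down from 100 µM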
Ecoli rRNA inh = selective bacterial rRNA inhibition in E. coli | GFP signal change (wild-type ribosome), % (test concentration not listed) | 350,000 compounds, 1.6% hits | AID 720706 | E. coli WT GFP vs humanized-ribosome RFP mutants, fluorescence, 24 h; stronger effect = lower value; DMSO median 0, no signal -100;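 active = significant combined selectivity score with lowered wild-type GFP, culture density cut under 30%, mutant RFP and density less affected; inactive = any of these conditions unmet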; note: one replicate is shown; some compounds called inactive have numbers as strong as hits
Bfl-1 A1 inh = inhibitors of the anti-apoptotic protein A1, read as caspase activation; 330,000 compounds, 0.066% hits; MEF A1-2A-BIM cells, Caspase-Glo 3/7 luminescence, 3 h; percent of clofoctol response, vehicle zero; caspase activation, % (concentration not given with the values); AID 2462;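 active = over half of replicate activation scores above 10%, or exactly half above 10 with the replicate mean above 10; inconclusive = replicate mean below 10 yet half the replicates above 10; inactive = over half of replicates below 10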;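 note: wells of about 30 µL received 50 nL stock; many hits fall short of the cut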
T cruzi inh = blocks replication of Trypanosoma cruzi; 300,000 compounds, 1.4% hits; AID 1885; T. cruzi beta-gal in NIH3T3, luminescence, 90 h; inhibition, % (concentration not given with the values);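 active = mean inhibition across valid replicates above about 55%, limit read from the data; inconclusive = mean below that limit but half or more replicates reach it; inactive = mean below it, under half of replicates reach it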;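 note: signal also drops with host cell toxicity which is not excluded here; 0% = plate median of DMSO wells and 100% = zero luminescence signal; higher percent means less beta-gal luminescence so fewer parasites; stock transfer was 50 nL into about 50 µL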
MLL AF4-AF9 inh = blocks AF4 peptide binding to human AF9; P42568; AlphaScreen, biotin-AF4 peptide binding to FLAG-AF9; inhibition, % at 10 µM; 350,000 compounds, 0.47% hits; AID 651704;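 active = every replicate reaching a set inhibition limit, whatever the replicate mean, cut at about 25% in these data; inconclusive = mean inhibition reaches that limit but some replicates miss it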;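 note: 0% = plate neutral control median and 100% = total signal loss; the record names both 10 and 1 µM as test concentration; the first replicate is given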
Target sequence (P42568 whole entry, looked up): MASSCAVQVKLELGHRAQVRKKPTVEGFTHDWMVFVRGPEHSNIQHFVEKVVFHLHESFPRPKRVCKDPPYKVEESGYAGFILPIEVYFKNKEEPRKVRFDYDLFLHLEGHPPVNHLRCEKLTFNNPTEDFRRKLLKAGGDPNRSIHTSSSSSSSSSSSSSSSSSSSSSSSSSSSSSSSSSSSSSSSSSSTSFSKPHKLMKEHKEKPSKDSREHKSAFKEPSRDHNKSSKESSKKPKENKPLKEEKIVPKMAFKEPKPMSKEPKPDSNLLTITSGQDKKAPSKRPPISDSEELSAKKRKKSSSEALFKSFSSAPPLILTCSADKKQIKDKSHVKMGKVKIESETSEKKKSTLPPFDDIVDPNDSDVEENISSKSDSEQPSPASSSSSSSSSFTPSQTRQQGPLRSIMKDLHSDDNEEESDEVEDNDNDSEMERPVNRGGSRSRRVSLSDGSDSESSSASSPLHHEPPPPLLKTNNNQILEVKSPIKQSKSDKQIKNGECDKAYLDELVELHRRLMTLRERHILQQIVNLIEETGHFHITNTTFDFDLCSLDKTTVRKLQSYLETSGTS
RanGTP-Impb inh = disruptors of Ran-importin-beta complex formation – biochemical, FRET, CFP-Ran, YFP-importin-beta, homogeneous, primary screen. cell-free CFP-Ran/YFP-importin-beta FRET ratio. 300,000 compounds, 1.1% hits. inhibition, % (concentration not given with the values);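 active = most replicates above 15%; inconclusive = exactly half above 15%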;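 note: 0% = DMSO wells and 100% = Ran loaded with GDP instead of GTP; wells of about 40 µL received 100 nL stock; the first replicate is given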
Calb FLC = C. albicans growth modulation with fluconazole; 300,000 compounds, 0.57% hits; growth inhibition, % (concentration not given with the values); AID 1979; C. albicans CaCi-2 (fluconazole-resistant clinical isolate) + fluconazole, Alamar Blue growth, 48 h;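 active = most replicates above 75%; inconclusive = exactly half above 75%; inactive = most below 75%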;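 note: all wells also contain fluconazole at 8 µg/ml as a sub-toxic cotreatment; 0% = median of DMSO wells and 100% = median of geldanamycin control wells; wells of about 8 µL received 7.5 nL stock; the first replicate is given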
Ecoli rRNA inh OD600 = also measured in Ecoli rRNA inh; calls as there; OD600 change, %; measured here: OD600 growth;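 optical density of the mix in the first replicate; 0 = DMSO median and -100 = no signal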
Ecoli rRNA inh RFP = also measured in Ecoli rRNA inh; calls as there; RFP signal change, %; measured here: RFP humanized mutant strains;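 first replicate; 0 = DMSO median and -100 = no signal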
Numbers without * were called inactive; ? = inconclusive; nt = not tested or not shown; & = joins results of further samples.

SMILES	Beta apoptosis	Vif TR-FRET	Ecoli rRNA inh	Ecoli rRNA inh OD600	Ecoli rRNA inh RFP	Bfl-1 A1 inh	T cruzi inh	MLL AF4-AF9 inh	RanGTP-Impb inh	Calb FLC
C#CCOCCOCCOCCNc1nc(N2CCN(C(=O)[C@H](CC(N)=O)n3cc(C(N)[C@@H](C)CC)nn3)CC2)nc(N2CCN(C(=O)[C@H](CCCCN)n3cc([C@@H](N)CC(N)=O)nn3)CC2)n1 (some centres undefined)	-3	nt	6	8	9.5	0.6	nt	10.0	nt	nt
CSCCC(C(=O)N(C)CC(=O)Nc1cccc(F)c1)N1C(=O)c2ccccc2C1=O (centres undefined)	-9	0%	0	10	0.9	-0.7	nt	0.2	nt	nt
Cc1ccc(C)c(S(=O)(=O)N2CCCC2CNC(=O)C(=O)NCc2ccccc2)c1 (centres undefined)	-10	nt	-12	-20	3.0	0.3	14	-1.5	0.7	0
O=C(Cc1cc2ccccc2o1)NCc1ccc(F)cc1	nt	-2%	0	5	2.8	-0.3	-1	-2.3	-0.4	-9
O=C(/C=C/c1ccc(Br)cc1)N1CCN(c2cccc(C(F)(F)F)c2)CC1	1	nt	nt	nt	nt	0.0	-17	nt	0.1	10
O=S(=O)(c1ccc(Cl)cc1)N1CCSC1c1ccco1 (centres undefined)	-6	22%	nt	nt	nt	-0.3	5	nt	nt	-44
COc1cc(OCC(=O)NC(C)C)cc2c1C(=O)O[C@@H](C)CCCC(=O)CCCCC2	-1	3%	7	16	1.1	0.4	-19	0.8	2.7	5
CCCCn1c(N)c(N(C)C(=O)c2cccc(-n3cnnn3)c2)c(=O)[nH]c1=O	-2	nt	12	16	-0.9	0.9	nt	0.5	nt	nt
COc1ccc(OC)c(NC(=O)c2ccc(OC3CSC3)cc2)c1	2	30%	4	3	1.1	0.3	8	1.8	0.6	40
CCOC(=O)c1cccc(NC(=O)C2CCCN2S(=O)(=O)c2cccc3cccnc23)c1 (centres undefined)	-5	-29%	7	0	11	0.1	19	3.6	3.7	4
O=c1c2cn(Cc3ccccc3)c3ccccc3c-2nn1Cc1ccc(F)cc1Cl	nt	nt	1	12	-2.6	nt	7	-1.6	0.9	-3
Cc1onc(-c2ccccc2)c1C(=O)Nc1ccc(S(=O)(=O)NC(C)(C)C)cc1	2	1%	-4	8	3.1	0.4	6	-1.3	2.1	0
O=C(CCc1nc2ccccc2s1)N1CCN(c2ccccc2)CC1	0	-3%	-16	-20	4.6	-0.6	4	0.2	4.4	19
CCCn1c2c(c(O)c(C(=O)NCc3ccccc3)c1=O)CCCC2	0	-5%	nt	nt	nt	0.0	11	nt	2.2	-18
CC(=O)OCCCNc1cc(Sc2ccc(Cl)cc2)c2nonc2c1[N+](=O)[O-]	-1	?	nt	nt	nt	0.5	33	-6.8	-2.0	-10
CCCOc1ccc(CNC(=O)c2ccc3nc(N4CCOCC4)sc3c2)cc1	4	nt	-3	2	-6.6	0.6	0	3.6	-1.4	-3
CS(=O)(=O)N1CCC(C(=O)Nc2ccc(C(F)(F)F)cc2)CC1	0	2%	6	9	0.4	-0.2	12	0.0	1.5	15
Cc1ccc(C(C)(C)C)c(OCCCn2ccnc2)c1	3	nt	-57	-82	-36	0.9	34	?	-1.0	-19
CCC(C)C(=O)N1CCCC(c2nc(-c3cccs3)no2)C1 (centres undefined)	-3	-1%	nt	nt	nt	0.2	-16	nt	2.1	-8
Cc1cnn(-c2cc(Oc3ccccc3)ncn2)c1	0	-10%	nt	nt	nt	-1.2	-11	nt	0.3	0
Cc1ccc(OCCCC(=O)NC(C)c2ccccc2)cc1 (centres undefined)	-2	0%	nt	nt	nt	0.3	3	nt	1.4	1
COc1ccc(C2(NC(C)=O)CCN(C(=O)c3cccs3)CC2)cc1	-3	-3%	nt	nt	nt	0.4	-9	nt	5.3	-8
O=C(c1ccco1)N1CCN(CC(=O)N(C2CCCCC2)C2CCS(=O)(=O)C2)CC1 (centres undefined)	-2	6%	nt	nt	nt	-0.8	0	nt	?	0
CCOC(=O)C1=C(CC)Nc2ccccc2N=C1NC(=O)c1ccc(S(=O)(=O)N(C)C)cc1	-6	1%	nt	nt	nt	2.4	2	nt	8.8	2
Cc1ccc(Cc2nc(-c3ccncc3)no2)cc1	2	nt	6	7	-0.7	-0.7	1	-1.2	3.1	3
NC(=O)c1ccccc1OC1CCC1	-7	20%	10	11	-0.2	-0.1	-5	-1.3	-0.7	-1
CCn1cc(S(=O)(=O)Nc2ccc3c(c2)OCCO3)cn1	6	nt	16	6	-2.6	-0.3	-4	-0.9	2.0	-4
CC(=O)N(CCC1(C(C)C)CCOC(C)(C)C1)Cc1ccco1 (centres undefined)	0	?	nt	nt	nt	-1.3	-16	-9.4	-2.0	22
CCCCN(CC(=O)NC(C)(C)C)C(=O)C(=O)Nc1ccc2c(c1)OCCO2	-3	-8%	3	2	-3.0	-1.0	-2	-2.1	-1.1	-26
Cc1ccc(C(=O)CCC(=O)Nc2cc(C)ccn2)cc1	-15	-10%	nt	nt	nt	0.2	nt	0.3	nt	nt
O=C(CSc1cccc[n+]1[O-])Nc1ccc([N+](=O)[O-])cc1Cl	0	-4%	11	9	0.0	-0.6	-12	0.5	-3.4	14
Cc1ccc(S(=O)(=O)NCCC(=O)N2CCC(C(N)=O)CC2)cc1C	5	1%	10	11	1.5	0.1	-14	12	-1.7	6
Cc1cccc(C)c1NC(=O)CCCSc1nc2ccccc2s1	-3	-7%	nt	nt	nt	0.0	7	1.7	1.6	-1
COc1ccc(C(=O)NCC(=O)Nc2ccc(-c3ccccc3)cc2)cc1	0	nt	1	0	1.9	-1.0	3	3.5	1.1	-4
CC[C@@]1(C(=O)OC)N[C@H](CN(C)C(=O)Nc2ccc(C)cc2)[C@@H]2C(=O)N(Cc3ccccc3)C(=O)[C@@H]21	-3	1%	4	11	-1.7	-0.2	nt	-0.1	nt	nt
O=S(=O)(c1ccc(Cl)nc1)N1CCCCC1	-2	nt	5	7	-2.4	0.9	-6	1.8	0.7	0
COc1ccc(N(CC(=O)Nc2ccccc2C(F)(F)F)C2=NC3CS(=O)(=O)CC3S2)cc1 (centres undefined)	-22	nt	-7	-1	1.7	0.2	-5	-7.1	1.2	-6
COC(=O)c1ccc(CNC(=O)CSC(C)C(=O)Nc2cc(C)on2)cc1 (centres undefined)	6	15%	nt	nt	nt	-0.1	nt	-0.4	nt	nt
N#C/C(=C\c1c(F)cccc1Cl)c1nn(-c2ccccc2)c(-n2cccc2)c1C#N	45	0%	4	11	9.8	-0.3	41	23	-4.0	-6
O=C(c1cccc(S(=O)(=O)N2CCOCC2)c1)N(CCc1ccccc1)Cc1ccccc1	-11	-2%	-18	-30	-2.1	0.2	nt	0.5	nt	nt
Cc1cc(C)c(C#N)c(Cl)n1	-1	nt	22	18	-8.6	0.5	-10	7.3	1.0	0
CCc1cccc(OCCCn2ccnc2)c1	-2	-7%	nt	nt	nt	0.3	36	nt	-0.1	13
O=C(NCc1nc2ccccc2[nH]1)C1=C[C@@H](C2CC2)C[C@@H](OCc2ccc(CO)cc2)O1	-4	nt	-27*	-18*	1.0*	-0.4	-8	-0.7&-0.8	3.2	0
Cn1c2c(c(=O)n(C)c1=O)C(C(F)(F)F)(C(F)(F)F)N=C(CCC1CCCCC1)N2	16	nt	-56	-81	-40	-0.1	1	-10	2.4	-2
CCCC(=O)Nc1cc(-c2nn(C)c(=O)c3ccccc23)ccc1N1CCCCC1	13	-1%	nt	nt	nt	0.2	29	nt	1.6	4
CCOc1ccc(OCC)c(NC(=O)CCNS(=O)(=O)c2cc(Br)cnc2N)c1	1	nt	-16	-15	0.6	1.5	11	1.5	0.9	12
Cn1c(N)c(C(=O)COC(=O)Cc2c(F)cccc2Cl)c(=O)n(C)c1=O	2	nt	-2	3	0.0	-0.1	nt	-2.5	nt	nt
c1ccc(CC2CCN(c3nc4ccccc4n4nnnc34)CC2)cc1	-2	-14%	nt	nt	nt	-0.6	-5	nt	5.2	-4
O=C(/C=C/c1ccco1)N1CCCC(c2ccccc2)C1 (centres undefined)	-2	-8%	nt	nt	nt	-0.4	1	0.6	-0.2	6
O=C(N=C1SC2CS(=O)(=O)CC2N1CCc1ccccc1)C1CCCCC1 (centres undefined)	-8	-8%	8	14	-2.9	-0.2	8	-3.8	-1.1	0
Cc1ccc(Sc2ncccc2NC(=O)c2ccccc2Cl)cc1	-1	-4%	nt	nt	nt	-0.4	0	-12	?	56
CCCNC(=O)c1ccccc1NS(=O)(=O)c1ccc2c(c1)OCCO2	-2	-5%	nt	nt	nt	0.2	-7	nt	5.1	2
Cc1ccc(C(=O)c2sc3nc4c(cc3c2N)CCC4)cc1	-7	-3%	nt	nt	nt	-0.4	47	nt	6.6	16
Cc1nc(N2CCN(c3ccccn3)CC2)c2c(C)c(C(=O)N3CCN(c4ccccc4F)CC3)sc2n1	-1	nt	2	5	2.2	-0.2	28	3.0	4.3	-19
COC(=O)c1ccc(C23CC4(C2)[C@H](CN(CC2CCCCC2)[C@@H]4c2ccccc2)C3c2ccccc2)cc1 (some centres undefined)	-5	nt	4	1	-4.9	-0.5	28	1.2	-2.9	-17
CCN(C(=O)C1CCN(c2nc(-c3ccc(OC)cc3)no2)CC1)c1ccccc1	6	nt	-25	-27	-0.7	-0.1	29	-4.1	3.4	13
Cc1ccsc1C(=O)Nc1ccc2c(c1)OCCO2	14	nt	nt	nt	nt	-8.3	-3	nt	-1.6	-1
C#CCOCCOCCOCCNc1nc(N2CCN(C(=O)[C@H](CCC(=O)O)n3cc(C(N)CO)nn3)CC2)nc(N2CCN(C(=O)[C@H](Cc3ccc(O)cc3)n3cc(C(N)CC(C)C)nn3)CC2)n1 (some centres undefined)	-10	12%	nt	nt	nt	-0.7	-22	nt	-4.0	10
Cc1cccc(NC(=S)NCCc2ccc3c(c2)OCCO3)c1C	-2	-2%	-18	-39	-2.8	-0.1	-13	4.3	4.1	-10
CCN(Cc1cc2ccccc2[nH]c1=O)C(=O)c1cccnc1	-1	-1%	nt	nt	nt	0.4	6	nt	6.9	-56

Other structures:
SMILES	Beta apoptosis	Vif TR-FRET	Ecoli rRNA inh	Ecoli rRNA inh OD600	Ecoli rRNA inh RFP	Bfl-1 A1 inh	T cruzi inh	MLL AF4-AF9 inh	RanGTP-Impb inh	Calb FLC
COC(=O)c1cc(NC(=O)CN2CCc3cc4c(cc3C2)OCCCO4)cc(C(=O)OC)c1	3	nt	nt	nt	nt	1.0	23	1.9	-1.3	2
CC(=O)Nc1ccc(OCc2nnc(-c3ccccc3)o2)cc1	nt	32%	-23*	-14*	-1.3*	-0.5	3	3.0	-3.7	-4
CCOc1ccc(CCNC(=O)CN2C(=O)CCSc3ccccc32)cc1OCC	-11	nt	3	3	-0.8	0.3	5	0.2	0.2	7
CN1CCc2c(sc3c2c(=O)n(-c2ccccc2)c2nncn32)C1	-1	?	nt	nt	nt	1.8	12	nt	7.4	19

The list is partial. The share of hits here may be higher or lower than overall.
